Assay outcomes: PubChem, National Center for Advancing Translational Sciences (NCATS)
nsP2pro primary: blocks chikungunya virus nsP2 protease peptide cleavage. Q8JUX6. FRET peptide cleavage, nsP2pro, fluorescence 1 h. Potency, µM (titrated, usually from 24.9 µM), for the others: at the top dose activity change, negative = inhibition, hits mostly inhibitors. actives 1.1% (n = 31,000). AID 1964107; active means well fitted inhibition curve with a large enough effect; inconclusive means small, poorly fitted or top-dose-only effect; inactive means no such curve, though single readings can be large or run the other way; also: nearly all actives have a fitted effect of over 60% in size; a reference inhibitor and vehicle were the controls
An asterisk follows results filed as active; i = inactive; ? = inconclusive; & = joins results of further samples; [ ] = another dose, or the depositor's remark. % is scaled to controls: 0 for no effect and ±100 for the full control effect; potency is read from the fitted curve at half-maximal effect. Only part of the results is shown, so the mix of outcomes need not match the whole.

structure	nsP2pro primary
CC(=O)OC(CSC1CCC(=O)OC(C)CCC(=O)C1)C(=O)O (centres undefined)	?
Cc1cccc(S(=O)(=O)Nc2cnccc2C(=O)Nc2nc(-c3ccccc3)cs2)c1	i
COc1ccc(C2Nc3ccccc3C(=O)N2Cc2ccco2)cc1COc1ccccc1C (centres undefined)	-3%
COc1cc(Cl)c(NC(=O)CCS(=O)(=O)c2ccc3c(c2)NC(=O)CO3)c(OC)c1	-17%
CC(C)NC(=O)C1CCN(C(=O)c2cc3sccc3n2Cc2ccc(Cl)cc2)CC1	-25%
CCOC(=O)CSc1nc2ccc(NC(=O)COc3ccccc3C)cc2s1	-19%
CCc1ccc(CN(Cc2ccco2)C(=O)c2ccccc2Cl)cc1	-13%
O=C(Nc1ccc2c(c1)OCCO2)c1ccc(-c2nc3ccccc3[nH]2)cc1	-18%
CC(=O)N1CCN(C(=O)C[C@@H]2C[C@@H](C(C)C)[C@H](CNC(=O)c3cncnc3)C=C2C)CC1	3%
CN1C(C(=O)Nc2ccccn2)=C(O)c2ccccc2S1(=O)=O	-1%
Cc1ccc(C)c(CN2C(=O)c3ccccc3Sc3ccc(C(=O)NC4CCCC4)cc32)c1	-5%
CC(C)c1ccc(NC(=O)CN(C)S(=O)(=O)c2ccc3c(c2)n(C)c(=O)c(=O)n3C)cc1	-11%
O=C1Cc2cc(CCN3CCN(c4nsc5ccccc45)CC3)c(Cl)cc2N1	5%&-4%
COC[C@H](NC(=O)c1cnc(C)s1)C(=O)N[C@@H](COC)C(=O)N[C@@H](Cc1ccccc1)C(=O)[C@@]1(C)CO1	-30%&3%
Cc1ccc(C)c(NC(=O)c2cnn(-c3ccc(F)cc3F)c2C2CCNCC2)c1	-16%
N#Cc1cccc(NC(=O)CSc2nc3c(cc2C#N)N2CCC3CC2)c1	-4%
COc1ccc(C2Nc3ccccc3C(=O)N2Cc2ccncc2)cc1COc1ccc(NC(C)=O)cc1 (centres undefined)	-5%
S=C(NCCCc1cnc[nH]1)NCCCN(Cc1ccc(Cl)c(Cl)c1)c1ccccn1	i
Cc1oc(C(C)C)cc1C(=O)N1CC[C@](C)(O)[C@@H](O)C1	-17%
CCOC(=O)c1ccoc1-c1ccc2ncnc(NCc3ccc(C)o3)c2c1	4%
O=C(Cn1nc2n(c1=O)CCCC2)N1CCN(c2ccccc2F)CC1	2%
CCOC(=O)c1c(C)[nH]c(CCC(=O)NCCCN2CCN(c3ccc(F)cc3)CC2)c1C	-5%
O=c1c2ccccc2nc2sc(Nc3ccc(Oc4ccccc4)cc3)nn12	i
Cc1ccc(C)c(NC(=O)CSc2nc(-c3ccccc3)c(C#N)c(=O)[nH]2)c1	-9%
CS(=O)(=O)N(C1CCOCC1)C1CN(C(=O)c2ccoc2)C1	13%
CCN1c2ccccc2-c2nc(SCC(=O)Nc3ccc(C)c(Cl)c3)ncc2S1(=O)=O	-1%
O=C(CCOCCOCCOCCOCCC(=O)Nc1c(I)cc(I)c(C(=O)O)c1I)Nc1c(I)cc(I)c(C(=O)O)c1I	3%
CC(=O)N1c2c(cc(Br)cc2S(=O)(=O)N2CCN(c3cccc(Cl)c3)CC2)CC1C (centres undefined)	-23%
Cc1ccccc1OCC(=O)Nc1nnc(SCc2cc(=O)n3cccc(C)c3n2)s1	-17%
O=C(c1ccc2c(c1)[nH]c(=O)n2C1CCC(O)CC1)N1CCOCC(O)C1 (centres undefined)	3%
COc1ccc(CNc2ccc(N3CCN(C(C)=O)CC3)cc2)cc1OC	1%
O=C(CSc1nnc(-c2ccccc2Br)n1-c1ccccc1)c1ccc(F)cc1	-12%
O=C(Nc1ccc(F)c(C(F)(F)F)c1)Nc1nc(-c2ccncc2)cs1	i
O=C(CSc1nc(=O)[nH]c2c1CCCC2)Nc1cc(C(F)(F)F)ccc1Cl	-13%
COc1ccc(CCN2CC(C(=O)NCCc3ccccc3)CC2=O)cc1OC (centres undefined)	-16%
Cc1ccc(S(=O)(=O)N2CCN(C(=O)c3cc(-c4ccc(Br)cc4)n[nH]3)CC2)c(C)c1	-10%
CCc1cccc(NC(=O)C(CC)n2nc(C)c3sc4ccccc4c3c2=O)c1 (centres undefined)	-26%
CC1CCN(C(=O)c2c(NC(=O)c3ccccc3F)sc3c2CCC(C(C)(C)C)C3)CC1 (centres undefined)	-5%
CCCCCCCOc1cc2c(cc1/C(C)=C/c1ccc(C(=O)O)cc1)C(C)(C)CCS2(=O)=O	187%[activator]
O=C(CCn1c(=O)c2cccn2c2cccnc21)N1CCN(c2ccccc2F)CC1	-14%
COc1ccc(/C=C/C(=O)O[C@H]2[C@@H]3C=CO[C@@H](O[C@@H]4O[C@H](CO)[C@@H](O)[C@H](O)[C@H]4O)[C@@H]3[C@@]3(CO)O[C@@H]23)cc1O	42%[10 µM]
CCOc1ccc(Sc2cc(C(=O)NC(C)CC)c3ccccc3n2)cc1 (centres undefined)	-25%
O=C(O)Cc1cc(I)c(Oc2ccc(O)c(I)c2)c(I)c1	22%
Cc1cccc(CNC(=O)c2cnc3c(-c4cccc(C)c4)c(C)nn3c2C)c1	-20%
O=C(NC1CC1)C1c2ccccc2C(=O)N(C2CCCCC2)C12CCCCC2 (centres undefined)	i
Cc1cccc(N2CCN(C(=O)CN3C(=O)COc4ccc(S(=O)(=O)N5CCCC5)cc43)CC2C)c1 (centres undefined)	-16%
CO[C@H]1C[C@@H](O[C@@H]2/C(C)=C/C[C@@H]3C[C@@H](C[C@]4(CC[C@H](C)[C@@H](C5CCCCC5)O4)O3)OC(=O)[C@@H]3C=C(C)/C(=N/O)[C@H]4OC/C(=C\C=C\[C@@H]2C)[C@]43O)O[C@@H](C)[C@H]1O	-3%
Cc1cccc(C(=O)Nc2c(N3CCCCC3)c(-c3cccc(F)c3)nn2C)c1	3%
CCn1ccc(C(=O)N2CCC(N3C[C@H](O)C[C@H]3C(=O)NCc3cccnc3)CC2)n1	-18%
O=C(Nc1ccc2oc(-c3ccccc3F)nc2c1)c1ccccc1Cl	9%
Cc1c(CNC2CCC(C)CC2)c(C(=O)O)c(C)n1Cc1ccccc1F (centres undefined)	-16%
O=C(C1CCCCC1)N1C[C@@H]2C[C@H](C1)c1c(-c3cncnc3)ccc(=O)n1C2	-11%[39.2 µM]
CCNc1nc(OC)nc(Oc2ccc(=O)[nH]n2)n1	-13%
COC(=O)c1sc2cccc(F)c2c1S(=O)(=O)N1CCN(c2cccc(C)c2)C(C)C1 (centres undefined)	-13%
CC(O)/C=C/C1OC(=O)CC1Nc1ccc(C(=O)O)cc1 (centres undefined)	15%
COC(=O)Nc1nc2ccc(C(=O)c3ccc(F)cc3)cc2[nH]1	-11%

Remaining list, next part
structure	nsP2pro primary
CCOC(=O)C1CCN(S(=O)(=O)c2cc(-c3onc(C)c3C)ccc2C)CC1	-11%
O=C1CCCC2=C1C(c1[nH]ncc1Cl)NC(=NCc1ccccn1)N2 (centres undefined)	3%
Cc1cc2c(s1)c1cnn(Cc3cc(F)ccc3C)c(=O)c1n2C	-2%
CC(=O)NC(c1cccs1)c1cc(Br)c2cccnc2c1O (centres undefined)	-5%
CCOc1ccc(CNC(=O)CCCc2cn(C)c3ccccc23)cc1OC	-20%
O=S(=O)(NC1CCC(NS(=O)(=O)c2c(F)cccc2F)CC1)c1ccc2c(c1)OCCO2 (centres undefined)	0%
O=C1[C@H](O[C@@H]2O[C@H](CO)[C@@H](O)[C@H](O)[C@H]2O)Oc2ccccc2N1O	?
O=C(c1cnc(C23CC4CC(CC(C4)C2)C3)[nH]c1=O)N1C[C@H]2CNC[C@H]2C1	-15%
CCc1cccc(C)c1NC(=O)Cn1c(=O)cc(C(F)(F)F)c2c(C)nn(C)c21	-26%
CCN(CC)c1nc2c(S(=O)(=O)c3ccccc3)nnn2c2ccc(Cl)cc12	-1%
Cc1ccc(C)c(N2CCN(C(=O)c3cc(C)nc4c3c(C)nn4-c3cccc(F)c3)CC2)c1	-13%
CCC(C)/C=C(C)/C=C/C1=CC2=C(Cl)C(=O)C(C)(OC(C)=O)C(=O)C2=CN1C(CCC(=O)O)C(=O)O (centres undefined)	-1%[10 µM]
CC(=O)N1CCC(N[C@@H]2C[C@H](Cn3cc(-c4cccnc4)nn3)[C@@H](O)[C@H]2O)CC1	3%
C[C@@H]1C[C@H]2O[C@@]3(O[C@@H]2C(C)(C)O)C(O)[C@@]2(C)C4CCC5C(C)(C)[C@@H](O[C@H]6OC[C@H](O)[C@@H](O)[C@@H]6O)CC[C@@]56C[C@@]46CC[C@]2(C)C13 (some centres undefined)	6%[10 µM]
CSc1ccc(CNC(=O)C2CCN(c3nc4ccccc4nc3C(F)(F)F)CC2)cc1	-15%
CCCCCCCCCCCCOCCO	-11%
COc1ccccc1-c1cccc(CN2CCC(NC(C)=O)CC2)c1	i
Cc1ccc(Cn2c(C)c3cnn(CC(=O)N4CCN(c5ccc(F)cc5)CC4)c(=O)c3c2C)cc1	-5%
O=C(O)c1ccc(O)c2ncc(N3CCCC3)cc12	i
CNC(=O)c1cc(C)nc2onc(C3CCCN3C(=O)C(C)(C)C)c12 (centres undefined)	1%
COc1ccc(C)cc1NC(=O)CCS(=O)(=O)c1ccc2c(c1)CC(=O)N2C	-12%
COc1ccc2c(c1)CN(C1CCN(C)CC1)CC[C@H]1COC(=O)N21	-3%[39.2 µM]
CCOc1ccc(-c2nc3c(c(SCC(=O)N4CCCCC4)n2)Cc2cccc(OC)c2O3)cc1	-20%
CCS(=O)(=O)N1CCC(c2noc(COc3ccc(F)cc3)n2)C1 (centres undefined)	-3%

The last 5 entries of the part above come first, to join the parts.
structure	nsP2pro primary
CNC(=O)c1cc(C)nc2onc(C3CCCN3C(=O)C(C)(C)C)c12 (centres undefined)	1%
COc1ccc(C)cc1NC(=O)CCS(=O)(=O)c1ccc2c(c1)CC(=O)N2C	-12%
COc1ccc2c(c1)CN(C1CCN(C)CC1)CC[C@H]1COC(=O)N21	-3%[39.2 µM]
CCOc1ccc(-c2nc3c(c(SCC(=O)N4CCCCC4)n2)Cc2cccc(OC)c2O3)cc1	-20%
CCS(=O)(=O)N1CCC(c2noc(COc3ccc(F)cc3)n2)C1 (centres undefined)	-3%
Cc1cc(C(C#N)c2ccc(Cl)cc2)c(Cl)cc1NC(=O)c1cc(I)cc(I)c1O (centres undefined)	?
O=C(O/N=C1\c2ccccc2-c2nc3ccccc3nc21)c1ccco1	?
O=C(Nc1cccc(F)c1F)C1CCN(c2ncccn2)CC1	-16%
CCC/C=C/c1cc2c(C=O)c(O)c(CC=C(C)C)cc2o1	11%
Cc1cc(C)n(CC(=O)N2CCC3(CC2)CC(CN2CCOCC2)N(C)C3)n1 (centres undefined)	-2%
Cc1noc(-c2ccc(-c3ccc(CC(=O)O)cc3)cc2)c1NC(=O)O[C@H](C)c1ccccc1Cl	218%[activator]
COc1ccc(NC(=O)C2CCN(S(=O)(=O)c3cc(-c4noc(C)n4)ccc3C)CC2)cc1	-5%
COc1ccccc1NCc1cccn1-c1nnc(N2CCCCCC2)s1	-27%
CN(C)S(=O)(=O)N1[C@@H]2CC[C@H]1CC(NC(=O)c1ccc(F)cc1)C2 (some centres undefined)	i
Cc1ccc(CNC(=O)c2ccc(Cn3c(SCc4ccc(F)cc4)nc4cccnc43)cc2)o1	?
C/C=C(\C)C(=O)O[C@@H](C)[C@H]1CC[C@]2(O)C3CCC4C[C@@H](OC5CC(OC)C(OC6CC(OC)C(OC7CC(OC)C(OC8OC(C)C(OC9OC(CO)C(O)C(O)C9O)C(OC)C8O)C(C)O7)C(C)O6)C(C)O5)CC[C@]4(C)C3[C@H](O)[C@@H](O)[C@]12C (some centres undefined)	3%[5.1 µM]
O=C(CSc1nc2c([nH]c3ccccc32)c(=O)n1-c1cccc(Cl)c1)NCc1ccccc1	1%
COc1ccc(-n2ncc3c2ncn2nc(-c4ccc(OC)c(OC)c4)nc32)cc1	-19%
O=C(OC[C@H]1O[C@@H](OC(=O)c2cc(O)c(O)c(OC(=O)c3cc(O)c(O)c(O)c3)c2)[C@H](OC(=O)c2cc(O)c(O)c(OC(=O)c3cc(O)c(O)c(O)c3)c2)[C@@H](OC(=O)c2cc(O)c(O)c(OC(=O)c3cc(O)c(O)c(O)c3)c2)[C@@H]1OC(=O)c1cc(O)c(O)c(OC(=O)c2cc(O)c(O)c(O)c2)c1)c1cc(O)c(O)c(OC(=O)c2cc(O)c(O)c(O)c2)c1	?
COc1ccc2c(c1)CCc1c(C(=O)Nc3ccc(OC)cc3OC)noc1-2	-26%
O=S(=O)(Cc1ccccc1)N[C@H]1CO[C@H]2[C@@H]1OC[C@@H]2Nc1nccc(-c2cccc(F)c2)n1	3%
C/C1=C\CC[C@]2(C)O[C@H]2C(=O)c2c(C)coc2C1	-2%
COc1ccc(CCO[C@@H]2CCCC[C@H]2N2CC[C@@H](O)C2)cc1OC	-30%
COc1ccc(-c2cnc(N3CCC(C(N)=O)CC3)s2)cc1OC	2%
CCC(COC(=O)c1cc(OC)c(OC)c(OC)c1)(c1ccccc1)N(C)C (centres undefined)	4%
O=C(NCc1ccccc1Cl)c1ccc(NC(=O)N2CCSc3ccccc32)cc1	-9%
COc1ccccc1-c1cc(C(=O)Nc2sc3c(c2C#N)CCCC3)no1	-23%
